Six1-Eya2 blk – Six1/Eya2 interaction inhibition; Q15475+O00167; AlphaScreen GST-Six1/His-Eya2 binding, biochemical; stronger effect = lower value; control for the full effect not named in the record; activity change, % (concentration not given with the values); actives 0.56% (n = 360,000); AID 651725; in the data active = activity change below about -65%; inconclusive = about -30% to -65%; inactive = above about -30%; also: % is scaled to controls: 0 for no effect and ±100 for the full control effect
Target sequence (O00167 whole entry, looked up): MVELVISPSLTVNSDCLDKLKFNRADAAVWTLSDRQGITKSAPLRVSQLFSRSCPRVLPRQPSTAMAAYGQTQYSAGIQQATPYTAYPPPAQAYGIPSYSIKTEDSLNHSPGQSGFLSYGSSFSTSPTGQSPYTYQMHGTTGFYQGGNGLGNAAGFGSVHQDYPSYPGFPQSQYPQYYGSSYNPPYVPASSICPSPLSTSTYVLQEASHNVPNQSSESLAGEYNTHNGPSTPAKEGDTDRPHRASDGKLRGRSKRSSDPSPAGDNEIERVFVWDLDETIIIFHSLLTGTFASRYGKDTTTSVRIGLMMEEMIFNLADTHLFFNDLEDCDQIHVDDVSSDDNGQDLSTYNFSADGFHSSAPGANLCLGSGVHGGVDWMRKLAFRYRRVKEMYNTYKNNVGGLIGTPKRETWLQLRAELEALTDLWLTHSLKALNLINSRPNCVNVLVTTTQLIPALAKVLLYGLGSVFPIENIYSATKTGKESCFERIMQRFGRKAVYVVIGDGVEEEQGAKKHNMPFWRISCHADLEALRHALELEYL
Target sequence (Q15475 whole entry, looked up): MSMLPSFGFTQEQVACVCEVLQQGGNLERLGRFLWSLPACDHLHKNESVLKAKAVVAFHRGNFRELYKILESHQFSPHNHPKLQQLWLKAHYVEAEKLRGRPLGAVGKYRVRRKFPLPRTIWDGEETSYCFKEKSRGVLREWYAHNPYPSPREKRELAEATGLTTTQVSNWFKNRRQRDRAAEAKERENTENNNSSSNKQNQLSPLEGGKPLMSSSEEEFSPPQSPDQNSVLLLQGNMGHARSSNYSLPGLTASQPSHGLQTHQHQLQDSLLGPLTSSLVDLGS
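Homogeneous AlphaScreen proximity assay pairing GST-Six1 with His-tagged Eya2 (added as 5X mix: 250 nM and 500 nM) in 50 mM Tris pH 8.0, 300 mM NaCl, 1 mM TCEP. Glutathione donor and nickel acceptor beads; 1 h, 37 °C, dark.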
TRPML1 agonist – agonists of human TRPML1 channel. TRPML1-expressing cells, Ca2+ dye fluorescence, FDSS; host cell line not named in the record; reference of the full effect not given here. activation, % (concentration not given with the values). actives 0.12% (n = 410,000); in the data active = activation above about 50%; inconclusive = about 30% to 50%; inactive = below about 30%; also: 0% is about no effect; the text of the record puts the active cut at 80%
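Cells: TRPML1-DL, 1X Tet inducer, ~16 h at 37 degrees C/5% CO2. Dye: ABD Ca8 no-wash + quencher, 45-90 min RT. Read: 10 s baseline, compound add, 110 s agonist phase; 54-4 EC80 (4uM final), 110 s antagonist phase.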
D2 PAM – positive allosteric modulators of human D2 dopamine receptor; actives 0.23% (n = 360,000); DiscoveRx D2 beta-arrestin cells, luminescence, 90 min; 100% = 57 uM dopamine signal; AID 624464; potentiation, % (test concentration not listed); P14416; active = potentiation of 50% or more; inconclusive = 30% to 50%; inactive = 30% or less;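 also: compound concentration not given in the record; tested on top of an EC20 dose of dopamine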
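PathHunter beta-arrestin assay in DiscoveRx D2 cells. Compounds were added with an EC20 of dopamine (50 nM final) for 90 min at 37 deg C. Luminescence was read 1 h after detection reagent, with 57 uM dopamine as the EC100 control.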
TRPML1 blocker – blocks the human TRPML1 channel. TRPML1-inducible cells, Ca2+ dye fluorescence, FDSS; stronger effect = lower value; inhibition of EC80 agonist-evoked calcium signal. activity change, negative = inhibition, % (test concentration not listed). Q9GZU1. actives 0.02% (n = 390,000); in the data active means activity change below about -50%; inconclusive means about -30% to -50%; inactive means above about -30%;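 also: stimulus is agonist 54-4 at its EC80 concentration; % is scaled to controls: 0 for no effect and ±100 for the full control effect; compound concentration not given in the record; the text of the record puts the active cut at -80%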
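TRPML1-DL cells, Tet-induced overnight (~16 h, 37 °C) at 1,500 cells/well, were loaded with Ca8 no-wash dye plus quencher for 45-90 min at room temperature. Compounds were pinned during FDSS kinetic reading; agonist 54-4 at EC80 (4 uM final) then added.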
D2 agonist – activates the human D2 dopamine receptor; P14416; DiscoveRx PathHunter D2 beta-arrestin, luminescence, 90 min; 100% = 57 uM dopamine signal; activation, % (test concentration not listed); actives 0.084% (n = 360,000); AID 624465; in the data active = activation above about 40%; inconclusive = about 15% to 40%; inactive = below about 15%; also: compound concentration not given in the record; the text of the record calls up to 30% inactive
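DiscoveRx PathHunter D2 beta-arrestin cells (2,100/well) attached overnight, then compound-stimulated 90 min at 37 C in HBSS/10 mM HEPES/0.1% Tween-20 buffer; beta-galactosidase complementation read by luminescence after 1 h at ambient temperature. Dopamine 57 uM final (EC100) as control.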
PINK1 expr mod – PINK1 expression modulation | Potency, µM (doses to about 76.6 µM), inactives show at the highest dose activation (PINK1 increase), usual class: activators | AID 624263 | actives 0.2% (n = 410,000) | PINK1 immunofluorescence, high-content cytometry, 24 h; active = well fitted activation curve with a large enough effect; inconclusive = small, poorly fitted or top-dose-only effect; inactive = flat fitted curve, though single readings scatter; cell line not stated here;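 also: potency is read from the fitted curve at half-maximal effect; % of control where 0% means no effect; nearly all actives have a fitted effect of over 65% in size; a mitochondrial uncoupler was the plate control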
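Decision-based qHTS: stable cells, 24 h exposure to five compound concentrations, CCCP as control. Fixed cells stained for PINK1 plus nuclear, mitochondrial and cell markers, cytometer read.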
* hit, by the source's call; ? = inconclusive; · = not tested or not shown; [ ] = dose if it differs, or a comment. Only part of the results is shown, so the mix of outcomes need not match the whole.

SMILES,Six1-Eya2 blk,TRPML1 agonist,D2 PAM,TRPML1 blocker,D2 agonist,PINK1 expr mod
Fc1ccc(Cn2nnnc2C(c2ccc(Cl)cc2)N2CC=C(c3ccc(F)cc3)CC2)cc1 (stereo not given),7,1.2,-13,-2,-3.3,2.6%
CN1[C@@H]2CC[C@H]1CC(OC(=O)C1C=Nc3ccccc31)C2 (stereo not given in full),4,0.4,-17,11,-6.4,-0.6%
CC(C)(C)n1nnnc1C(c1cccs1)N1CCC2(CC1)C(=O)NCN2c1ccccc1 (stereo not given),-11,-0.7,-4,·,3.8,0.3%
COc1ccc(Cn2c(O)c(C=NCCN3CCOCC3)c(=O)[nH]c2=O)cc1,5,-0.5,-6,0,-3.8,-1.5%
CCOC(=O)c1c(/N=C/C2C(=O)NC(=O)NC2=O)sc2c1CCC2,-1,-0.2,1,1,2.8,6.9%
CCN1CCN(c2ccc([N+](=O)[O-])cc2C(=O)OC)CC1,-1,0.9,-8,?,-3.9,-1.8%
COC(=O)C1=C(c2ccc(S(C)(=O)=O)cc2)C[C@@H]2CC[C@H]1N2C(=O)N1CCC(C)CC1,-1,-0.9,0,8,1.0,0.0%
c1ccc(CCn2nnnc2CN2CCC(n3nnc4ccccc43)CC2)cc1,-1,-1.0,-13,1,-1.7,-1.3%
CC(=O)C1C(=O)NC23CCCCC2C1c1ccccc1O3 (stereo not given),-1,-0.2,2,-14,-0.2,·
COc1ccc(-n2c(=S)[nH]c3ccc(C)cc3c2=O)cc1,-3,-0.9,-7,8,-5.7,-1.0%
COc1cc2c(c(OC)c1)C(=O)OC(C)CCCC(=O)CCCCC2 (stereo not given),6,1.9,1,-22,-0.1,2.0%
CC(C)C1C(c2ccccc2)N(C)C(c2ccccc2)CC1(O)c1ccccc1 (stereo not given),3,0.3,-17,-1,1.7,?
Cc1nc2ccccc2c(=O)n1-c1ccc(Cl)cc1Cl,6,0.6,-3,7,2.9,-0.1%
COC(=O)C1=C(c2ccc(F)cc2OCc2ccccc2)C[C@@H]2CC[C@H]1N2C(=O)N1CCC(O)(c2ccc(Cl)cc2)CC1,-7,0.1,-10,-7,3.0,-0.6%
CC(=O)C1=C(O)C2(C)c3c(O)c(C)c(O)c(C(C)=O)c3OC2CC1=O (stereo not given),-7,0.1,-7,-27,-3.2,?

(more compounds)
SMILES,Six1-Eya2 blk,TRPML1 agonist,D2 PAM,TRPML1 blocker,D2 agonist,PINK1 expr mod
CCCCn1nnnc1C(c1ccccc1)N1CCC2(CC1)C(=O)NCN2c1ccccc1 (stereo not given),-6,-0.8,-11,·,-3.5,0.0%
CN(C)CCN(CC1CCCN(Cc2ccccc2F)C1)C(=O)Cc1c(F)cccc1F (stereo not given),0,0.3,0,-12,-4.2,-1.2%
CCOC(=O)c1c(C)n(CCN2CCN(C)CC2)c2ccc(OC)cc12,0,-1.0,-6,9,-1.2,-2.7%
Cc1ccc(C(=O)N[C@@H](C)CN2C3=NC[C@@H](Cc4ccccc4)N3C[C@H]2Cc2ccc(O)cc2)cc1Br,-13,-0.1,-23,-3,-3.1,-0.6%
CC(=NCc1cccnc1)c1c(O)n(C2CCCCC2)c(=O)[nH]c1=O,3,0.5,-1,10,1.8,-3.9%
C#CC1(O)CCC2C3CCC4=C/C(=N/OCC(=O)NCC(=O)NC(C(=O)O)C(C)C)CC[C@]4(C)C3CC[C@@]21C (stereo not given in full),-15,1.0,-5,?,0.9,0.1%
CCCCCCn1c(=O)c(C(=O)Nc2c(C)n(C)n(-c3ccccc3)c2=O)c(O)c2ccccc21,-1,-0.6,-3,11,-1.0,0.4%
CCOP(=O)(Cc1cc(C(C)=O)c(C)o1)OCC,-20,0.8,-26,-2,-1.5,1.6%
C=CCn1c(O)c(C(CC)=Nc2ccc(N(CC)CC)cc2)c(=O)[nH]c1=O,0,0.6,-4,9,-0.7,6.7%
CCn1c(=O)cc(OCC(=O)N2CCC3(CC2)OCCO3)c2ccccc21,-7,0.1,0,-4,-4.1,-1.1%
C#CCN[C@H](C)Cc1ccccc1,-17,-0.7,-3,2,-4.1,1.4%
O=C(N/N=C1/CN2CCC1CC2)c1cc2ccccc2cc1O,-1,0.2,9,2,-1.4,3.5%
N#CC1=C(N)Oc2c(c(=O)oc3ccccc23)C1c1cccnc1 (stereo not given),0,0.7,3,-8,-0.3,3.0%
CC(C)NC1C2CCC(CC2)C1(O)c1ccc(Cl)c(Cl)c1 (stereo not given),1,-0.2,-14,0,-3.9,8.1%
Cc1[nH]c2ccccc2c1CCN,-4,0.9,-12,-1,-0.1,0.4%

Reprinted from the part before: 2 compounds; new compounds follow.
SMILES,Six1-Eya2 blk,TRPML1 agonist,D2 PAM,TRPML1 blocker,D2 agonist,PINK1 expr mod
CC(C)NC1C2CCC(CC2)C1(O)c1ccc(Cl)c(Cl)c1 (stereo not given),1,-0.2,-14,0,-3.9,8.1%
Cc1[nH]c2ccccc2c1CCN,-4,0.9,-12,-1,-0.1,0.4%
CC1=C2[C@H]3OC(=O)[C@@H](C)[C@@H]3CC[C@@]2(C)C=CC1=O,6,·,-19,·,-4.3,0.6%
COc1ccc(-n2nnnc2C(c2ccccc2)N2CCC(n3c(=O)[nH]c4ccccc43)CC2)cc1 (stereo not given),-16,-0.2,29,·,?,-1.4%
COC(=O)C1=C(c2ccc(-c3ccccc3)c(F)c2)C[C@@H]2CC[C@H]1N2C(=O)NCCNC(C)=O,5,0.2,-17,8,-3.8,2.5%
O=C(OCC(=O)c1ccc([N+](=O)[O-])cc1)/C(=C/c1ccc(Cl)cc1)NC(=O)c1ccccc1,-4,1.4,-6,-8,-1.6,-0.5%
CC1[C@H]2Cc3ccc(O)cc3[C@]1(C)CCN2C (stereo not given in full),3,-0.7,-14,11,3.2,-0.4%
CN1C(=O)C(C2CCCCC2)C(=O)N(C)C1=O,-4,-0.4,2,7,-5.3,-0.8%
C1CNC2NCCNC2N1 (stereo not given),-15,0.6,-13,36,3.9,2.1%
Cc1cccc(N2C(=O)NC(=O)/C(=C\c3cnn(-c4ccccc4)c3)C2=O)c1,-9,0.6,-5,-20,-1.7,11%
COc1ccc(OC)c(-n2c(O)c(/C=C3\C(C)=Nc4ccccc43)c(=O)[nH]c2=O)c1,2,0.8,0,-20,-1.2,-1.8%
COc1nc(NCC2CCCO2)nc(N2CC3CC(C2)c2cccc(=O)n2C3)n1 (stereo not given),5,-0.7,-3,17,-1.7,0.7%
CCOC(=O)c1ccc(NC(=O)N2C[C@@H]3C[C@@H](C2)c2cccc(=O)n2C3)cc1,0,·,-2,·,5.7,1.5%
COc1cc(/C=C/[N+](=O)[O-])ccc1O,9,3.5,0,7,-1.2,-0.9%
Cc1ccc(C)c(Cn2c(C(=O)O)c(C=O)c3ccccc32)c1,-3,12,-3,0,-4.3,0.5%
O=C1NC(=O)C(CCc2ccncc2)(CCc2ccncc2)C(=O)N1CCc1ccc(F)cc1,10,0.7,-5,-17,-0.3,-0.4%
CC(=O)Nc1ccc(C=C2C(=O)NC(=O)NC2=O)cc1,15,0.4,-4,2,-1.8,-5.0%

The listing continues:
SMILES,Six1-Eya2 blk,TRPML1 agonist,D2 PAM,TRPML1 blocker,D2 agonist,PINK1 expr mod
CC(=O)OC1CC2(O)C3CCC4CC(O)CCC4(C)C3CCC2(C)C1C1=CC(=O)OC1 (stereo not given),1,-0.2,14,1,·,-1.3%
Cc1ccc(S(=O)(=O)N[C@@H](CCCCN)C(=O)CCl)cc1,5,-0.5,-22,5,-5.7,1.7%
CCc1ccc(-n2nc(C)c3c2NC(=O)CSC3c2ccc(C(=O)OC)cc2)cc1 (stereo not given),·,1.9,·,0,·,1.0%
CCCCCn1c(=O)c(C(=O)NCc2ccc(Cl)cc2)c(O)c2ccccc21,2,0.6,2,-12,-0.4,20%
CC(=O)N1N=C(c2cccnc2)CC1c1ccccc1O (stereo not given),-3,0.7,8,28,-2.8,-0.4%
O=c1ccc2cc3ccoc3c(O)c2o1,1,·,9,·,5.6,-1.1%
CN(C)C(=O)Oc1ccc(Br)c2ccccc12,2,1.1,-6,17,-6.0,2.7%
COc1cccc(C2CCN(CC(=O)Nc3cc(Cl)ccc3OC)CC2O)c1 (stereo not given),-2,-0.4,-6,-1,0.0,3.0%
COc1ccc(-n2c(/C=C3/C(=O)Nc4ccccc43)nc3ccccc3c2=O)cc1,0,1.9,0,-13,-3.0,5.7%
C=CCn1c(O)c(C=NC2CCN(Cc3ccccc3)CC2)c(=O)[nH]c1=O,9,-0.8,-22,-3,-4.2,1.1%
Cc1ccc(-n2c(-c3cccs3)nc3ccccc3c2=O)cc1,0,3.0,0,-6,-0.8,0.8%
Cn1c(O)c(C=NC2CC(C)(C)NC(C)(C)C2)c(=O)n(C)c1=O,-3,0.4,-3,-7,0.5,·
O=S(=O)(NC1CCCCCCC1)OCC(Cl)(Cl)Cl,9,-1.3,-31,2,0.4,8.6%
C=CCN1C(=O)C2(C(C(=O)OCC)=C(N)Oc3ccccc32)C2=C1CCCC2=O (stereo not given),3,-0.6,4,0,2.4,-2.8%[38.3 µM]
Cc1ccc(CNCCc2ccccc2F)cc1,1,0.2,-42,2,-3.3,-0.4%

(further entries)
SMILES,Six1-Eya2 blk,TRPML1 agonist,D2 PAM,TRPML1 blocker,D2 agonist,PINK1 expr mod
Brc1cc2c(cc1CN1CCN(c3ccccc3)CC1)OCCO2,7,0.7,1,6,-4.0,-0.5%
CCCCc1nn2c(=O)cc(COC(=O)Cc3ccccc3)nc2s1,·,-1.1,·,3,·,2.0%
Cc1cc(-c2ccccc2)cc(-c2ccccc2)[n+]1CCc1ccccc1,-3,-1.0,-44,45,0.6,?
COc1cc2[nH]c(C(=O)N3CCC4(CC3)OCCO4)cc2c(OC)c1OC,1,0.4,-9,20,-2.6,-0.6%
O=C(NCP(=O)(Oc1ccccc1)Oc1ccccc1)OCc1ccccc1,1,-0.9,-5,·,-3.5,0.5%
Cc1ccc(C(=O)COC(=O)Cc2ccccc2)cc1,16,0.5,-1,9,4.9,-0.5%
CCN1C(=O)NC(=O)/C(=C\c2cn(CC(=O)N3CCCC3)c3ccccc23)C1=O,6,-0.2,-5,-9,-2.7,1.4%
COC1=CC=C2[C@H]3Cc4ccc(OC)c5c4[C@@]2(CCN3C)[C@H]1O5,-6,-0.3,-3,8,-4.5,-1.7%
C=C1N2CCC(CC2)C1(O)c1ccc(C)cc1 (stereo not given),4,0.0,-10,-11,-3.3,-4.5%
CCCNC(=O)N1[C@H]2CC[C@@H]1C(C(=O)OC)=C(c1cccc(C#N)c1)C2,18,-0.2,-5,10,-0.8,0.1%
COc1cc(CN=C(C)c2c(O)n(C3CCCCC3)c(=O)[nH]c2=O)cc(OC)c1,-5,1.6,-8,2,-1.2,-1.7%
Cc1cnc(-n2c(=S)[nH]c3ccccc3c2=O)s1,-1,-0.5,-2,10,-4.9,1.4%
